Rango complex inh: inhibitors of Rango-importin beta complex formation | Q14974 | Rango CFP/YFP FRET sensor + importin beta, 45 min | Potency, µM (highest dose often 92.2 µM), for the others: top-dose inhibition of complex formation | hit rate 0.031% among 340,000 | AID 540263; active = rising FRET ratio curve, often small or poorly fitted; inconclusive = mostly compound fluorescence or quenching in the first reads; inactive = flat curves in all reads;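 also: potency is read from the fitted curve at half-maximal effect; 0% = DMSO wells and 100% = buffer wells lacking importin beta; nearly all actives have a fitted effect of over 15% in size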
Target sequence (Q14974 whole entry, looked up): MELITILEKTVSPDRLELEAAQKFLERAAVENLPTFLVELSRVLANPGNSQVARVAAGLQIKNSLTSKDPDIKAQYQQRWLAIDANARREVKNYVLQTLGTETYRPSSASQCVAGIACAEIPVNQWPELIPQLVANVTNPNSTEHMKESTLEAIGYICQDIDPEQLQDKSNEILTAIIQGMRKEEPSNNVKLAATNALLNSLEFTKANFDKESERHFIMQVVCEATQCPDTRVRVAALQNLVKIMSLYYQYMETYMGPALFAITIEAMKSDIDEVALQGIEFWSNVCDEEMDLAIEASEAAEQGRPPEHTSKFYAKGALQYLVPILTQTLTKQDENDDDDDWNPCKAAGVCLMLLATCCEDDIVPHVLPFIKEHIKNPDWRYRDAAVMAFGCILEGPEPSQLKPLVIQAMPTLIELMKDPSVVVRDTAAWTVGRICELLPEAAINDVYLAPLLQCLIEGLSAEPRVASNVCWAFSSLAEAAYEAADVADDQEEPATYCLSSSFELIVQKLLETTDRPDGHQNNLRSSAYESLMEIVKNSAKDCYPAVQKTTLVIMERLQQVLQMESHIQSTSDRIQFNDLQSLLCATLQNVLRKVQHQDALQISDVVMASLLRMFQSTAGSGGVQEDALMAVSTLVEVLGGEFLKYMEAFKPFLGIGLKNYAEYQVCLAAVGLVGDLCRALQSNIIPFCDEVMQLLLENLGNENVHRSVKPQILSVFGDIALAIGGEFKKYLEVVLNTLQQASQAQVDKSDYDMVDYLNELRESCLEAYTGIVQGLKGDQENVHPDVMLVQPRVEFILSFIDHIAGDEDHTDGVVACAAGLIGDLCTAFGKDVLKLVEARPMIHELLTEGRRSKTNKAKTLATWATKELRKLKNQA
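FRET biosensor (snurportin 1 IBB flanked by EYFP and cerulean), 50 nM, with compound 5 min, then 0.125 microM importin beta in PBS, 1 mM DTT, 0.02% Tween-20, 0.1% BSA. CFP/YFP ratio read after 45 min at room temperature; pre-read flags interference.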
miR-21 reporter: raises the signal of a miR-21 reporter. HeLa miR-21 FLuc reporter, luciferase, 48 h. Potency, µM (titrated, usually from 38.3 µM), without a hit: top-dose reporter change, positive = more light. 340,000 tested, under 10 active; active = well fitted rising curve with a large enough effect; inconclusive = small, poorly fitted or top-dose-only effect; inactive = no such curve, though single readings can be large or run the other way;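 also: % of control where 0% means no effect; miR-21 action dims this reporter so a rising signal means less miR-21 action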
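HeLa cells endogenously expressing miR-21, stably carrying CMV-driven firefly luciferase with a downstream miR-21 binding site, 2000 cells/well. Titrations up to approximately 40 uM, 48 hours; luciferase luminescence read.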
GLA inh pH 4.5: inhibitors of human alpha-galactosidase A at pH 4.5; P06280; purified enzyme, 4-MU-alpha-Gal fluorescence, pH 4.5; activity change, negative = inhibition, % at 105 µM; 230,000 tested, under 10 active; AID 1467; inconclusive = small, poorly fitted or top-dose-only inhibition, or a rising curve; inactive = flat fitted curve, though single readings scatter; no compound was filed as active;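 also: 0% = full activity with enzyme and -100% = basal without enzyme; dose as in the result columns while the protocol names 77 µM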
Rango release inh: inhibitors of RanGTP-induced Rango-importin beta complex dissociation; O95149+P62826; hit rate 0.071% among 340,000; Biochemical FRET Rango-importin beta, RanGTP-induced dissociation; Potency, µM (top dose mostly 46.1 µM), inactives show at the highest dose activity change, negative = inhibition; active means falling FRET ratio curve, often poorly fitted, with flat reads before Ran was added; inconclusive means other falling curves, or compound fluorescence or quenching; inactive means flat or rising ratio curve;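 also: potency is read from the fitted curve at half-maximal effect; % of control where 0% means no effect; nearly all actives have a fitted effect of over 45% in size; -100% = wells without RanGTP and RCC1; the record marks most hits as doubtful in a second field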
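Compounds sat 5 min at room temperature with 0.1 uM Rango biosensor plus 0.25 uM importin beta, then FRET pre-read. RanGTP-RCC1 (0.6 uM Ran, 2mM GTP, 0.2 uM RCC1) added for 45 min, and the CFP/YFP post-read measured blocked complex dissociation.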
* = called active by the depositor; ? = inconclusive; / = no result given. A portion of the library. The share of hits here may be higher or lower than overall.

SMILES	Rango complex inh	miR-21 reporter	GLA inh pH 4.5	Rango release inh
O=S(=O)(c1ccc(SCCOc2ccc(Br)cc2)nc1)N1CCCC1	0.1%	/	/	1%
Cc1ccc(Nc2nc3c(c(=O)[nH]c(=O)n3C)n2Cc2ccc(F)cc2)cc1	-0.2%	-15%	-3	-1%
C=CCN1C(=O)/C(=C2/C(=O)N(CC(=O)O)c3ccccc32)S/C1=N/c1nccs1	/	-2%	5	/
COc1ccc(C(=O)Nc2ccc(N3CCOCC3)cc2)cc1S(=O)(=O)NC1CCCC1	2.3%	3%	1	11%
CC(C)Cc1nnc(NC(=O)c2cc(-c3ccncc3)nc3ccccc23)s1	5.9%	-6%	-6	-7%
Cc1ccc(CC(=O)Nc2nncs2)cc1	5.7%	-4%	5	0%
O=C(CSCc1cnn(-c2ccccc2)c1-n1cccc1)NCC1CCCO1 (stereo unspecified)	-2.1%	0%	0	0%
C=CCn1c(COc2ccc(F)cc2)nnc1SC(C)C(=O)NCC1CCCO1 (stereo unspecified)	2.8%	/	/	10%
O=C(CSc1nnc(CNC(=O)c2c(F)cccc2Cl)o1)NCc1ccc2c(c1)OCO2	0.2%	0%	9	-2%
CC[C@H]1C(c2ccc(F)cc2)=NN(c2ccccc2)[C@@H]1CO	?	/	7	?
Cc1nc(CNS(=O)(=O)c2cc(F)ccc2F)cs1	3.0%	-5%	-10	-19%
CCOC(=O)CC(=O)CSc1nnc2c(n1)[nH]c1ccccc12	1.4%	-40%	4	27%
COc1cc(OC)cc(C(=O)NNc2nc3cc4c(cc3s2)OCO4)c1	-5.1%	-8%	-8	6%
CC[C@]12c3[nH]c4cc(CCC(=O)N(C)C)ccc4c3CCN1C(=O)[C@@H](CC(=O)NCc1ccco1)C[C@@H]2C(=O)N1CCN(C(=O)c2ccco2)CC1	-0.7%	/	/	-2%
Cn1c(SCC(=O)c2c(N)n(C)c(=O)n(C)c2=O)nnc1-c1ccc(F)cc1	3.4%	-2%	-3	-10%
Cc1nc2[nH]c(=O)c3c(n2n1)NC1=C(C(=O)CC(C)(C)C1)C3c1ccccc1 (stereo unspecified)	?	-2%	6	?
CC(=O)NS(=O)(=O)c1ccc(NC(=O)C2c3ccccc3Oc3ccccc32)cc1	-1.9%	-10%	6	-1%
C=CCNC(=O)C(C(=O)OCC)C1CCCCC1 (stereo unspecified)	7.4%	-8%	-1	-15%
O=C(N/N=C/c1c(Cl)cccc1Cl)c1ccc(F)cc1	1.6%	-23%	3	8%
CC1(C)CCc2cc(-c3ccnc(=S)[nH]3)ccc2O1	1.0%	-41%	-14	1%
O=C(CCCn1cnc2ccccc2c1=O)Nc1ccccc1F	-2.7%	-8%	/	15%
O=C(NN=C1CCCC1)c1ccn[nH]1	5.9%	-49%	-2	-7%
CCN(CC)CCN(C(=O)c1ccc2c(c1)OCCO2)c1nc2cc3c(cc2s1)OCO3	-1.0%	-6%	/	-2%
COC(=O)NCC(c1cccnc1)N1CCN(c2ccccc2F)CC1 (stereo unspecified)	1.1%	-2%	4	10%
COc1ccc2[nH]cc(C(=O)CN3CCN(C/C=C/c4ccccc4)CC3)c2c1	/	-2%	4	/
CCN1C(=O)/C(=C/C=C2/Sc3ccccc3N2CCO)SC1=S	2.1%	-7%	-4	-3%
Cc1c(C(=O)O)sc2nc(/C=C/c3cccc(F)c3)[nH]c(=O)c12	?	2%	/	?
CC1CCC(=NNC(=O)c2ccccc2-n2cccc2)CC1 (stereo unspecified)	-0.5%	/	/	40%
CCn1c(SCC(=O)NCc2ccco2)nnc1-c1ccc(N)cc1	3.6%	-4%	2	-9%
CCc1ccc(NC(=O)CSc2nc3cc(C(=O)OC)ccc3c(=O)n2Cc2ccco2)cc1	-0.2%	-2%	7	10%
O=C(O)COn1c(-c2ccccc2)nc2ccc([N+](=O)[O-])cc21	3.5%	-40%	-1	11%
CCC(C(=O)Nc1ccc2c(c1)OCCO2)n1c(=O)[nH]c2ccccc2c1=O (stereo unspecified)	-1.0%	-18%	/	5%
COc1nc(OC)nc(N2CCC(C(=O)NCc3ccc(F)cc3)CC2)n1	-0.7%	-5%	1	3%
COC1CCCN(Cc2c(C(=O)N3CCc4ccccc4C3)nc3ccc(Cl)cn23)C1 (stereo unspecified)	-3.7%	-4%	/	1%
Cc1c(NC(=O)COC(=O)/C=C/c2ccccc2Br)c(=O)n(-c2ccccc2)n1C	-1.9%	/	/	-10%
Cc1ccc(S(=O)(=O)N2[C@@H](c3ccc(Cl)cc3)C(C(=O)O)=CC[C@H]2c2cccc(C)c2)cc1	-0.2%	/	/	8%
CCOc1ccc(N(C(=O)c2snc(C(N)=O)c2N)C(C)C(=O)NC2CCCCC2)cc1 (stereo unspecified)	-3.4%	1%	/	-8%
Cc1cc(C)cc(NC(=O)c2cccc(N3C(=O)C4C5C=CC(C5)C4C3=O)c2)c1 (stereo unspecified)	-2.5%	0%	/	-14%
CC(=O)Nc1ccc(NC(=O)/C=C/c2cccc(C(F)(F)F)c2)cc1	-6.1%	-7%	1	0%
O=S(=O)(NC1=NCCC1)c1cccc(NC(=S)NCCc2ccccc2)c1	0.4%	-29%	4	-1%

7 consecutive records out of the list so far, for reference:
SMILES	Rango complex inh	miR-21 reporter	GLA inh pH 4.5	Rango release inh
COC1CCCN(Cc2c(C(=O)N3CCc4ccccc4C3)nc3ccc(Cl)cn23)C1 (stereo unspecified)	-3.7%	-4%	/	1%
Cc1c(NC(=O)COC(=O)/C=C/c2ccccc2Br)c(=O)n(-c2ccccc2)n1C	-1.9%	/	/	-10%
Cc1ccc(S(=O)(=O)N2[C@@H](c3ccc(Cl)cc3)C(C(=O)O)=CC[C@H]2c2cccc(C)c2)cc1	-0.2%	/	/	8%
CCOc1ccc(N(C(=O)c2snc(C(N)=O)c2N)C(C)C(=O)NC2CCCCC2)cc1 (stereo unspecified)	-3.4%	1%	/	-8%
Cc1cc(C)cc(NC(=O)c2cccc(N3C(=O)C4C5C=CC(C5)C4C3=O)c2)c1 (stereo unspecified)	-2.5%	0%	/	-14%
CC(=O)Nc1ccc(NC(=O)/C=C/c2cccc(C(F)(F)F)c2)cc1	-6.1%	-7%	1	0%
O=S(=O)(NC1=NCCC1)c1cccc(NC(=S)NCCc2ccccc2)c1	0.4%	-29%	4	-1%

New compounds follow.
SMILES	Rango complex inh	miR-21 reporter	GLA inh pH 4.5	Rango release inh
CC(C)N(CC(O)COc1ccc(CC(N)=O)cc1)CC(O)COc1ccc(CC(N)=O)cc1 (stereo unspecified)	0.1%	-5%	/	2%
Cc1noc(C)c1COc1ccccc1C(=O)NCCc1ccc(S(N)(=O)=O)cc1	0.0%	-2%	/	2%
Nc1c(C=C2C=CC(=O)C=C2)c(=O)nc2sc(CC(=O)N3CCOCC3)nn12	?	0%	/	?
Cc1cc(C=O)c(C)n1-c1cc(C(=O)O)cc(C(=O)O)c1	-3.7%	-1%	9	-5%
N#CCCN1CCN(CCC#N)c2ccccc21	0.3%	/	/	-7%
O=C(COC(=O)Cc1ccc(Cl)cc1)Nc1c(F)cccc1F	-4.9%	-1%	-3	-6%
O=C(NCCCN1CCCCC1)c1ccc2c(c1)NC(=O)C(N1CCCCC1)S2 (stereo unspecified)	0.4%	-3%	8	-7%
COc1ccc(Sc2nnc(Cc3ccccc3)c3ccccc23)cc1	1.0%	-5%	-7	5%
Cc1ccc(-n2c(SCC(=O)N(C)C)nnc2-c2ccco2)cc1	2.4%	-3%	/	13%
COc1ccc(N(CC(=O)NCc2ccc(F)cc2)C(=O)c2snc(C(N)=O)c2N)cc1	0.4%	-1%	/	-12%
COCCn1c(C)cc(C(=O)CSc2nnc(C)s2)c1C	-3.3%	?	6	-10%
COC(=O)c1c(C(=O)OC)c(-c2ccc(OC)cc2)n2c1CCC2	-4.2%	-4%	/	16%
CC(Oc1ccc2ccc(=O)oc2c1)C(=O)NCC1CCC(C(=O)O)CC1 (stereo unspecified)	0.1%	-1%	/	9%
Cc1ccc(N2C(=O)c3ccccc3NC2c2ccccc2O)cc1 (stereo unspecified)	-0.5%	-33%	/	-9%
Cc1c(Cl)cccc1N=C(N)N=C(N)N	4.2%	-2%	9	-1%
N#Cc1ccc(C(=O)NCC(c2ccco2)N2CCCCC2)cc1 (stereo unspecified)	0.5%	-6%	-3	2%
C/C(O)=C(/C=Nc1ccccc1)C(=O)Nc1ccccc1	1.4%	-12%	-5	-19%
Oc1[nH]c2ccccc2c1N=Nc1c(F)c(F)c(F)c(F)c1F	?	/	/	-19%
C=CCc1cc(Cl)ccc1OC(=O)Nc1cccc(Cl)c1	6.3%	-12%	-8	6%
CCN(CC(=O)Nc1ccccc1C(F)(F)F)C(=O)Cn1c(=O)cnc2ccccc21	2.9%	/	/	-4%
CCCCC(C(=O)NC(C)(C)C)N(Cc1ccccc1Cl)C(=O)c1snc(C(N)=O)c1N (stereo unspecified)	1.5%	15%	/	-28%
O=C1N[C@@H](Cc2c[nH]c3ccccc23)COC(=O)[C@H](Cc2ccc(F)cc2)C/C=C\C[C@H]1CC(=O)N(CCO)Cc1ccccc1	-4.0%	/	/	14%
Cc1n[nH]c(C)c1NC(=O)CN1CCN(S(=O)(=O)c2ccc(C(F)(F)F)cc2)CC1	1.1%	/	/	-1%
CCN1CCN(C(c2cc(OC)c(OC)c(OC)c2)c2nnnn2C(C)C)CC1 (stereo unspecified)	-0.3%	-3%	-1	-1%
COC1(OC)N=C(N)C2(C#N)C(c3ccc(C)cc3)C12C#N (stereo unspecified)	-0.2%	1%	5	2%
C=CC[C@H](CC(=O)N(CCO)Cc1ccccc1)C(=O)NC[C@H](OC(=O)[C@@H](CC=C)CC(=O)OC(C)(C)C)c1ccccc1	0.7%	/	/	-10%
CC(C)c1cc(C(=O)N2CCCC(Nc3ccc(F)cc3)C2)n[nH]1 (stereo unspecified)	2.7%	-4%	/	6%
Cc1cc(C)c2nc3s/c(=C/c4ccccc4)c(=O)n3c2c1	/	-15%	6	/
O=c1[nH]cnc2c1C1(CCCC1)Cc1ccccc1-2	-0.2%	10%	0	0%
CCOc1ccccc1N1CCN(CC(=O)NC(=O)NCc2ccco2)CC1	-7.0%	-1%	2	-5%
CCOc1ccc(NC(=O)c2ccc(N3CC4CC(C3)c3cccc(=O)n3C4)c(N)c2)cc1 (stereo unspecified)	2.6%	-4%	/	10%
O=C1C(=O)c2ccccc2C([O-])=C1[n+]1ccccc1	-3.7%	5%	1	-3%
Cc1cc(C)cc(NS(=O)(=O)c2ccc3[nH]c(=O)[nH]c3c2)c1	-0.7%	0%	-1	-13%
Cc1ccc(C(=O)N[C@@H](C)CN2C3=NC[C@H](C)N3C[C@H]2Cc2ccc(O)cc2)cc1Br	/	20%	3	/
CC(C)CNC(=O)c1cc(-c2ccco2)on1	-1.5%	-50%	3	-4%
CS(=O)(=O)N1CCN(c2ccc(NC(=O)C(c3ccccc3)c3ccccc3)cc2)CC1	?	-2%	1	2%
COc1ccccc1/C=N\NC(=O)c1c(C)nc2ccc(Cl)cn12	4.5%	5%	/	-12%
Cc1ccc(-n2c(=O)c3sccc3n(CC(=O)NC3CCCCC3)c2=O)cc1	-2.7%	-1%	0	2%
Cc1oc(C(C)(C)C)cc1-c1cc(NC(=O)c2ccc([N+](=O)[O-])cc2)n[nH]1	4.9%	-5%	6	1%
CN(Cc1cccnc1)C(=O)c1ccc(Cl)c(NS(=O)(=O)c2ccc(F)cc2)c1	-2.9%	/	/	9%
COc1ccc(CNC(=O)c2ccc(N3CCC4(CC3)CC(c3ccc(Cl)cc3)=NO4)c([N+](=O)[O-])c2)cc1	?	/	/	-6%
Cc1cc(NC(=O)CCCSc2nc(-c3ccco3)cc(C(F)(F)F)n2)n(-c2ccccc2)n1	0.4%	7%	4	-9%
CCOC(=O)C1=C(C)Nc2ccc(C)cc2S1	0.3%	-8%	0	-7%
O=C(COc1ccc2ccccc2c1)N1CCN(C(=O)c2cccnc2)CC1	-2.0%	-7%	5	29%
O=C(NC(=S)NCCCN1CCOCC1)c1ccc(Br)cc1	-0.7%	-20%	7	16%
COc1ccccc1NS(=O)(=O)c1ccc(C(=O)N2CCCCCCC2)cc1	1.0%	/	/	-1%
Nc1nc(CN2CCN(Cc3ccc4c(c3)OCO4)CC2)nc(Nc2ccccc2)n1	2.2%	1%	6	13%

Screens (PubChem)
